Screening results deposited in PubChem BioAssay by National Center for Advancing Translational Sciences (NCATS).
PINK1 modulator: modulators of PINK1 expression; PINK1 immunofluorescence, high-content cytometry, 24 h; Potency, µM (series often up to 76.6 µM), without a hit: at the top dose activation (PINK1 increase), hits mostly activators; 0.2% of 410,000 active; AID 624263; active = well fitted activation curve with a large enough effect; inconclusive = small, poorly fitted or top-dose-only effect; inactive = flat fitted curve, though single readings scatter; cell line not stated here;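 further: potency means the concentration at half of the fitted maximal effect; % of control where 0% means no effect; nearly all actives have a fitted effect of over 65% in size; a mitochondrial uncoupler was the plate control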
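Fluorescence from anti-PINK1 antibody, together with nuclear and cell stains, was scanned on a laser-scanning cytometer. Before staining, stable-line cells were incubated 24 hours with compounds at 5 concentrations; primary antibody 12 h at 10 degrees C.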
Sfp inh: Sfp phosphopantetheinyl transferase inhibition | Potency, µM, for the others: max response, negative = inhibition, actives largely listed as inhibitors | 3.5% of 310,000 active | Biochemical Sfp PPTase activity, qHTS | AID 1490; active means well fitted inhibition curve with a large enough effect; inconclusive means small, poorly fitted or top-dose-only effect, or another doubt; inactive means no such curve, though single readings can be large or run the other way;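 further: the enzyme is Sfp with the accession as filed and its product quenches rhodamine fluorescence; potency means the concentration at half of the fitted maximal effect; 0% = enzyme reaction without inhibitor and -100% = no enzyme wells; top concentration of the series not given in the record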
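Compounds were incubated with enzyme (final 15 nM) for 15 min at room temperature before substrate addition started the reaction. Fluorescence at 525 nm excitation, 598 nm emission was recorded immediately and after 30 minutes.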
TRPV1 PAM: potentiators of human vanilloid receptor 1 (TRPV1); Q8NER1; TRPV1-expressing cells, Fluo-8 calcium influx, capsaicin EC20 potentiation; host cell line not named in the record; control for the full effect not named in the record; potentiation, % at 8.33 µM; 0.02% of 320,000 active; AID 540277; active means potentiation above 80%; inconclusive means 30% to 80%; inactive means below 30%; further: 0% is about no effect
Target sequence (Q8NER1 whole entry, looked up): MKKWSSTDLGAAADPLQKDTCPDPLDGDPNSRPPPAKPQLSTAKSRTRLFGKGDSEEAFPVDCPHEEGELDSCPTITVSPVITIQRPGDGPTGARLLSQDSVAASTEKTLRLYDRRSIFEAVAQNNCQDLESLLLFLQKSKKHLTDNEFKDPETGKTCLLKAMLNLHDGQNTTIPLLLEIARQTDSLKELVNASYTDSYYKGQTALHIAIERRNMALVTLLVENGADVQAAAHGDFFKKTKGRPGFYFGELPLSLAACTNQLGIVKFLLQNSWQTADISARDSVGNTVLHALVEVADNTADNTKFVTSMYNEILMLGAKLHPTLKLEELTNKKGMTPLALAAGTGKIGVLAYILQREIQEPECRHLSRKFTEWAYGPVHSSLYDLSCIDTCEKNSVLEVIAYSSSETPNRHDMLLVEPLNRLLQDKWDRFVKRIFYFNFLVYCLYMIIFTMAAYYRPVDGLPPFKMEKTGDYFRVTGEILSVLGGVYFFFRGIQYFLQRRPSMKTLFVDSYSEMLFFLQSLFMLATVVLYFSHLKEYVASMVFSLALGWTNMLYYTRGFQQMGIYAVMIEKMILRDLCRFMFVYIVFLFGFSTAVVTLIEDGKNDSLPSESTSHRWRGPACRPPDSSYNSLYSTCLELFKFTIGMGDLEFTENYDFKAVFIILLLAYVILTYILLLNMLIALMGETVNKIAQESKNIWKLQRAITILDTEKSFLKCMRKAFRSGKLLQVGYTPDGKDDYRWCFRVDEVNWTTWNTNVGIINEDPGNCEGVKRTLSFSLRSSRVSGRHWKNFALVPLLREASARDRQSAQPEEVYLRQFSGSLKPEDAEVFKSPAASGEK
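Cells expressing TRPV1 were dye-loaded with Fluo-8 and read kinetically: 10 s baseline, 3 min after compound (agonist portion), then 2 min after EC20 capsaicin (allosteric enhancer portion). Calcium-bound dye fluorescence at 480/520 nm.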
CtBP-E1A blk: blocks the CtBP interaction with E1A; AlphaScreen GST-E1A/His-CtBP binding, 1536-well; stronger effect = lower value; control for the full effect not named in the record; activity change, % (test concentration not listed); 0.49% of 340,000 active; AID 651724; in the data active means activity change below about -65%; inconclusive means about -30% to -65%; inactive means above about -30%; further: on the % scale 0 is the no-effect control and ±100 the full control effect; compound concentration not given in the record
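AlphaScreen with 125 nM GST-E1A and 125 nM His-CtBP (5X stocks) in Tris pH 8.0, 300 mM NaCl, BSA, Tween 20, TCEP. Compounds preincubated 2 h at 37 deg C, then glutathione donor/nickel acceptor beads added for 1 h at 37 deg C in dark.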
D2 agonist: human D2 receptor agonism in beta-arrestin assay. P14416. DiscoveRx PathHunter D2 beta-arrestin, luminescence, 90 min; 100% = 57 uM dopamine signal. activation, % (concentration not given with the values). 0.084% of 360,000 active; in the data active = activation above about 40%; inconclusive = about 15% to 40%; inactive = below about 15%; further: compound concentration not given in the record; the text of the record calls up to 30% inactive
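Agonist mode: compounds alone added to overnight-plated D2 PathHunter cells for 90 min at 37 C, with 57 uM final dopamine (EC100) defining full response. Beta-arrestin recruitment detected by chemiluminescent reagent, read after 1 h at ambient temperature.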
D2 PAM: human D2 receptor positive allosteric modulation; 0.23% of 360,000 active; potentiation, % (no concentration beside the values); P14416; DiscoveRx D2 beta-arrestin cells, luminescence, 90 min; 100% = 57 uM dopamine signal; AID 624464; active = potentiation of 50% or more; inconclusive = 30% to 50%; inactive = 30% or less;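 further: compound concentration not given in the record; tested on top of an EC20 dose of dopamine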
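PathHunter beta-arrestin assay in DiscoveRx D2 cells. Compounds were added with an EC20 of dopamine (50 nM final) for 90 min at 37 deg C. Luminescence was read 1 h after detection reagent, with 57 uM dopamine as the EC100 control.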
Six1-Eya2 blk: Six1/Eya2 interaction inhibition. 0.56% of 360,000 active. Q15475+O00167. AlphaScreen GST-Six1/His-Eya2 binding, biochemical; stronger effect = lower value; control for the full effect not named in the record. AID 651725. activity change, % (test concentration not listed); in the data active = activity change below about -65%; inconclusive = about -30% to -65%; inactive = above about -30%; further: on the % scale 0 is the no-effect control and ±100 the full control effect; compound concentration not given in the record
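Homogeneous AlphaScreen proximity assay pairing GST-Six1 with His-tagged Eya2 (added as 5X mix: 250 nM and 500 nM) in 50 mM Tris pH 8.0, 300 mM NaCl, 1 mM TCEP. Glutathione donor and nickel acceptor beads; 1 h, 37 °C, dark.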
Numbers without * were called inactive; ? = inconclusive; / = not tested or not shown; [ ] = dose if it differs, or a comment.

SMILES	PINK1 modulator	Sfp inh	TRPV1 PAM	CtBP-E1A blk	D2 agonist	D2 PAM	Six1-Eya2 blk
Cc1ccc(-c2cc(C(F)F)n3ncc(C(=O)N4CCC5(CC4)OCCO5)c3n2)cc1	15.3%[38.3 µM]	-11.6%	-9.1	4.3	1.4	-6.8	-0.1
O=c1[nH]c2ccccc2n1C1CCN(Cc2ccc(-c3nc4ccccc4nc3-c3ccccc3)cc2)CC1	-0.8%	/	/	-23.7	/	/	-10.1
FC(F)(F)c1ccc(CNCCc2ccc3c(c2)OCO3)cc1	16.8%	79.4µM*	14.9	/	-6.7	-2.1	16.9
CCCCCn1c(=O)c(C(=O)Nc2ccccc2S(N)(=O)=O)c(O)c2ccccc21	?	28.4%	2.0	-19.0	2.9	-3.2	-7.4
O=C(O)c1cccc2c1NC(c1cccc([N+](=O)[O-])c1)C1CC(Sc3ccccc3[N+](=O)[O-])C(Cl)C21 (configuration not stated)	-2.8%	39.8µM*	5.1	-6.6	1.6	5.0	-15.4
COC(=O)CC1(CC(=O)OC)C(=O)N(c2ccccc2)C(=O)N(c2ccccc2)C1=O	-1.9%	10.9%	1.3	4.8	-4.3	-6.5	5.2
CCCCn1c(O)c(C(C)=NCCCN(CC)CC)c(=O)[nH]c1=O	-3.7%	9.7%	-6.3	0.0	1.5	-8.4	-0.9
COc1cccc(-n2nc(C(=O)N3CCC4(CC3)OCCO4)c3ccccc3c2=O)c1	0.2%	5.7%	6.4	0.5	2.2	-9.6	-3.5
Nc1cc(N2CCNCC2)ccc1[N+](=O)[O-]	-0.7%	4.5%	-15.9	10.9	-0.5	-22.2	2.7
CC(=O)C1CCC2C3CCC4CC(O)CCC4(C)C3CCC12C#N (configuration not stated)	-0.7%	/	/	-15.7	-7.1	-7.0	2.7
CN=C(SCc1cc2c(cc1Cl)OCO2)c1c(O)n(C)c(=O)n(C)c1=O	-4.3%	-18.4%	1.2	0.0	3.3	10.3	2.0
Cc1ccc2c(c1)CC1(CN2C)C(=O)NC(=O)N(c2ccc(C)c(C)c2)C1=O (configuration not stated)	1.4%	-8.4%	9.2	-5.2	-14.2	-10.0	0.2
CN1C(=O)C(C2c3ccccc3C(=O)N2Cc2ccccc2)C(=O)N(C)C1=O (configuration not stated)	3.9%	-12.6%	28.6	10.9	-11.7	-6.7	10.1
O=C(CN1C(=O)CN=C(c2ccccc2)c2ccccc21)NCc1ccco1	-0.6%	9.5%	-33.0	-6.3	-7.9	-31.9	-6.4
CN1CCN(C(=O)COc2ccc(S(=O)(=O)NCc3ccccc3)cc2Cl)CC1	-0.3%[38.3 µM]	2.4%	-3.1	-2.7	3.1	-9.0	1.2
CO[C@@H]1C=CC23c4cc5c(cc4CO[C@]2(O)CN(C)[C@H]3C1)OCO5 (some centres not stated)	-1.8%	/	/	-24.3	-4.6	-8.9	-0.3
C[C@]12CCC(=O)C(O)=C1CC[C@@H]1[C@@H]2CC[C@]2(C)C(=O)CC[C@@H]12	1.7%	24.8%	-10.0	1.2	5.7	0.3	4.4
C[C@@H]1C[C@@H]([C@H](O)CC2CC(=O)NC(=O)C2)C(=O)[C@@H](C)C1	-0.8%	7.7%	-9.0	2.0	-3.8	-14.5	2.5
Cn1c(O)c(C=Nc2ccccc2)c(=O)n(C)c1=O	2.9%	8.3%	-0.1	-10.2	-5.5	1.7	-4.4
O=C1c2ccccc2-n2nnc(-c3ccccc3)c2C2c3cc(Br)ccc3CCN12 (configuration not stated)	4.4%	/	/	9.8	2.7	-0.7	1.4
O=C(c1ccco1)C12CN3CN(CN(C3)C1)C2	8.7%[38.3 µM]	26.9%	-8.6	4.2	-1.8	-5.7	-1.1
O=c1[nH]c2ccccc2n1C1CCN(C(c2ccnc3ccccc23)c2nnnn2Cc2ccccc2)CC1 (configuration not stated)	-0.5%	/	/	-7.3	?	20.5	-3.3
Cc1ccc(NC(=O)c2ccc(C)c(S(=O)(=O)N3CCCCC3)c2)nc1	4.2%	/	10.0	-7.1	-1.6	-17.9	-8.9
O=P(NC1CCCCC1)(Oc1ccccc1)Oc1ccccc1	-3.2%	/	/	9.6	0.5	-1.8	8.1
CC(C)OC(=O)Nc1ccc(N=C(N)N[N+](=O)[O-])cc1	1.5%	13.8%	-5.0	7.6	-0.5	-3.0	4.7

(listing goes on)
SMILES	PINK1 modulator	Sfp inh	TRPV1 PAM	CtBP-E1A blk	D2 agonist	D2 PAM	Six1-Eya2 blk
CC(N)Cc1c[nH]c2ccc(OCc3cccs3)cc12 (configuration not stated)	0.9%	-9.6%	/	-21.2	7.1	-9.2	-3.6
Cc1cc(OCC(=O)N2CCC(C(=O)O)(c3ccccc3)CC2)c2c(C)c(C)c(=O)oc2c1	1.1%	18.1%	7.8	-14.4	-5.1	5.4	-13.7
C=CCn1c(O)c(C(C)=NCc2cccnc2)c(=O)[nH]c1=O	-2.3%	12.9%	17.4	-21.0	0.4	-3.0	2.2
CCCCOc1ccc(CCN)cc1Cl	7.7%	-2.1%	6.1	-0.1	-5.7	-20.3	8.3
CCC(=Nc1cc(OC)ccc1OC)c1c(O)[nH]c(=O)[nH]c1=O	-10.2%[38.3 µM]	4.7%	6.2	-5.2	3.6	-2.0	-1.9
CC(=NCC1CCCO1)c1c(O)n(-c2ccc(C)cc2)c(=O)[nH]c1=O (configuration not stated)	-0.2%	1.8%	-5.4	9.1	0.2	5.4	0.1
Cc1cc(N2CCCC2)ccc1C=C(C#N)C#N	13.2%	11.5%	21.1	1.5	-4.8	-5.1	3.2
C[C@]12CCC3C(CC[C@H]4C[C@@H](O)CC[C@]34C)C1C[C@@H](O)[C@H]2O (some centres not stated)	1.7%	/	/	1.6	1.3	2.0	5.8
CC1CN(C(=O)CCC(=O)N2CCC3(CC2)OCCO3)c2cc(Cl)ccc2O1 (configuration not stated)	0.3%	6.1%	-3.3	-15.3	3.2	-17.2	6.5
COc1ccc2nc(NC(=O)CCc3nc(C4=CCN(C)CC4)no3)sc2c1	5.3%	6.2%	23.1	-1.3	2.3	-5.8	-5.3
O=c1[nH]c(=O)n(C2CCCCCC2)c(O)c1C=NC1CCN(Cc2ccccc2)CC1	0.9%	-1.3%	2.9	-0.7	0.7	-12.7	-3.3
COc1ccc(OCC(=O)N2CCN(CC3CC4C=CC3C4)CC2)cc1 (configuration not stated)	2.4%	-22.6%	-0.2	-0.2	-3.5	-7.4	2.4
CCOc1cc2c(cc1OCC)-n1cccc1C(c1ccc(OC)c(O)c1)NC2 (configuration not stated)	3.9%	3.3%	21.2	-22.7	-4.3	-17.6	-13.8
O=C(/C=C/c1ccc2c(c1)OCO2)c1c(O)n(CCc2ccccc2)c(=O)[nH]c1=O	-2.4%	4.9%	14.6	-22.5	0.4	-4.2	11.2
COc1cc(CN2CCSCC2)cc(OC)c1OC	-2.4%	?	9.9	0.8	-4.1	-13.1	-0.2
COP(=S)(OC)SCN1C(=O)c2ccccc2C1=O	0.8%	35.5µM*	9.4	4.5	-3.3	-7.4	3.5
CC1(C)Cc2c(sc3c2C(=O)NC(c2cccnc2)N3)CO1 (configuration not stated)	0.7%[38.3 µM]	39.8µM*	-3.6	-4.9	-2.7	-4.2	-0.3
COc1ccc(-n2nnnc2C(c2ccccc2OC(F)(F)F)N2CCC(n3c(=O)[nH]c4ccccc43)CC2)cc1 (configuration not stated)	1.4%	/	/	-22.2	5.6	3.6	-8.2
COP(=O)(OC)C(NC(=O)C(C)(C)C)=C(Cl)Cl	0.2%	5.8%	-2.7	3.8	-2.1	-0.5	1.9
CN1CCN(c2ccc(NC(=O)C(C)(C)C)cc2)CC1	-0.1%	-12.7%	4.5	5.9	-3.1	-1.1	3.4
CCn1c(O)c(C=Nc2cc(Cl)ccc2Cl)c(=O)n(CC)c1=O	3.4%	11.0%	1.9	2.0	0.3	-0.2	0.8
Nc1ccc2nonc2c1[N+](=O)[O-]	3.0%	3.4%	2.4	/	3.6	4.2	-7.6
Cc1ccccc1N1C(=O)NC(=O)/C(=C\c2ccc3c(c2)CCCN3Cc2ccccc2)C1=O	2.8%	79.4µM*	-14.2	4.1	-1.8	11.9	-6.0
COc1ccc(Nc2nc3ccc(C)cc3cc2C#N)c(OC)c1	?	-5.7%	5.0	12.9	3.1	-10.2	31.7
C[C@H]1CC[C@H]2NCCN[C@H]2C1	1.2%	100µM*	15.6	-5.5	1.2	-3.2	4.1

Entries of single compounds from above. Screens in order: PINK1 modulator, Sfp inh, TRPV1 PAM, CtBP-E1A blk, D2 agonist, D2 PAM, Six1-Eya2 blk
COP(=O)(OC)C(NC(=O)C(C)(C)C)=C(Cl)Cl is listed with 0.2%, 5.8%, -2.7, 3.8, -2.1, -0.5, 1.9
C=CCn1c(O)c(C(C)=NCc2cccnc2)c(=O)[nH]c1=O is listed with -2.3%, 12.9%, 17.4, -21.0, 0.4, -3.0, 2.2
CC1CN(C(=O)CCC(=O)N2CCC3(CC2)OCCO3)c2cc(Cl)ccc2O1 (configuration not stated) is listed with 0.3%, 6.1%, -3.3, -15.3, 3.2, -17.2, 6.5
CCn1c(O)c(C=Nc2cc(Cl)ccc2Cl)c(=O)n(CC)c1=O is listed with 3.4%, 11.0%, 1.9, 2.0, 0.3, -0.2, 0.8

Other records.
SMILES	PINK1 modulator	Sfp inh	TRPV1 PAM	CtBP-E1A blk	D2 agonist	D2 PAM	Six1-Eya2 blk
Cc1ccc(S(=O)(=O)N(C)c2ccc(C(=O)NCC3(N(C)C)CCCCC3)cc2)cc1	4.3%	13.3%	-5.8	-10.2	-1.2	-29.8	-7.5
CCCCP(=O)(O)CCC(=O)O	-0.6%	11.4%	-9.6	2.7	-2.3	-6.2	-0.8
O=c1cccc2n1CC1CC2CN(Cc2c(F)cccc2Cl)C1 (configuration not stated)	-1.0%	12.5%	-0.2	15.8	-0.1	-8.4	-2.1
CC(=O)Nc1ccc(C(c2c(O)c3ccccc3oc2=O)c2c(C)n(C)n(-c3ccccc3)c2=O)cc1 (configuration not stated)	0.4%	12.9%	?	-5.3	0.4	-4.5	1.9
Cc1ccc(CN2CCN(CC(=O)N3CCC4(CC3)OCCO4)C2=O)cc1	-0.7%	2.3%	4.2	-2.6	-2.3	24.0	-1.0
COc1ccc(CNCCc2ccc(Cl)cc2Cl)cc1	-0.9%	-1.7%	10.6	-6.2	-2.8	-14.0	1.5
CCOC(=O)c1c(C)[nH]c(C(=O)C(C)N2CCCC2)c1C (configuration not stated)	-1.6%	15.1%	-2.0	9.7	-6.4	-15.8	-1.3

A portion of the library; rates above refer to the full screens.
